MT1-MMP act inh = blockers of MT1-MMP proenzyme processing, primary screen, HT1080 RFP-PRO-GFP cells, GFP/RFP fluorescence | hit rate 0.061% among 360,000 | Matrix metalloproteinase-14 (Homo sapiens), P50281 | GFP/RFP ratio change, % at 20 µM | GFP/RFP ratio fluorescence, overnight; percent of plate control window, DMSO zero | AID 651647, 2012;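 active = GFP/RFP ratio change of at least 30% with cell ATP level not reduced by more than half and red fluorescence within 50% of control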; note: strong numbers were not always called active
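Read-out: GFP/RFP fluorescence ratio; Test system: RFP-PRO-GFP reporter HT1080 cells; Compound dosing: single-point 20 µM compound, 1% DMSO; Times: overnight compound exposure at 37 °C.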
Rce1 inh = yeast Rce1p protease inhibitors, primary screen, biochemical, fluorescence, cell-free homogeneous. calls only. yeast membranes, quenched prenylated peptide cleavage fluorescence. CAAX prenyl protease 2 (Saccharomyces cerevisiae (strain ATCC 204508 / S288c)), Q03530. AID 2563, 2010. hit rate 0.27% among 290,000;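 active = fall in fluorescence gain of 50% or more versus controls, with final raw signal at or below 3038400; inconclusive = same 50% fall but final raw signal above 3038400; inactive = fall in fluorescence gain under 50%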;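 note: plate controls were neutral control wells for no effect and wells lacking membranes for full effect; tested at 10 µM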
CSC inhib = cancer stem cell viability inhibitors, primary screen, luminescence; cancer stem cell-like cells viability; inhibition, % at 7.5 µM; hit rate 1.1% among 300,000;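 active = mean at 75% or more and at least half the replicates too; inconclusive = mean and replicates disagree; tested in HMLE shEcad cells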;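 note: 0% = median of negative and 100% = median of positive control wells; the first replicate is given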
HIV Env fusion = inhibitors of HIV-1 Env-driven cell-cell fusion, primary screen, HeLa-JRFL effector, CEM21 target cells, luciferase; inhibition, % at 12.3 µM; hit rate 1.1% among 360,000; AID 651610, 2012;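 active = mean replicate inhibition score of at least 50 and every replicate individually at or above 50; inconclusive = only one of the two criteria met; inactive = mean below 50 and not all replicates reaching 50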;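 note: 0% = plate neutral controls and 100% = maraviroc near 300 nM; one replicate is shown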
PABP FP inh = PABP poly(A) RNA binding inhibitors, primary screen, biochemical, fluorescence polarization, uHTS; Polyadenylate-binding protein 1 (Homo sapiens), P11940; inhibition, % at 35 µM; hit rate 1% among 290,000; AID 2014, 2009;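 active = 50% or more with normal probe brightness, or confirmed in later tests; inconclusive = above 50% with abnormal brightness, or retests that disagree; inactive = below 50% or failed in later tests; about a fifth of its hits are not listed in these tables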;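 note: calls also rest on retests at 20 µM and on dose response follow-up; controls were probe without protein and protein plus probe with vehicle; some compounds called inactive have numbers as strong as hits; many hits fall short of the cut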
Target sequence (P11940 whole entry, looked up): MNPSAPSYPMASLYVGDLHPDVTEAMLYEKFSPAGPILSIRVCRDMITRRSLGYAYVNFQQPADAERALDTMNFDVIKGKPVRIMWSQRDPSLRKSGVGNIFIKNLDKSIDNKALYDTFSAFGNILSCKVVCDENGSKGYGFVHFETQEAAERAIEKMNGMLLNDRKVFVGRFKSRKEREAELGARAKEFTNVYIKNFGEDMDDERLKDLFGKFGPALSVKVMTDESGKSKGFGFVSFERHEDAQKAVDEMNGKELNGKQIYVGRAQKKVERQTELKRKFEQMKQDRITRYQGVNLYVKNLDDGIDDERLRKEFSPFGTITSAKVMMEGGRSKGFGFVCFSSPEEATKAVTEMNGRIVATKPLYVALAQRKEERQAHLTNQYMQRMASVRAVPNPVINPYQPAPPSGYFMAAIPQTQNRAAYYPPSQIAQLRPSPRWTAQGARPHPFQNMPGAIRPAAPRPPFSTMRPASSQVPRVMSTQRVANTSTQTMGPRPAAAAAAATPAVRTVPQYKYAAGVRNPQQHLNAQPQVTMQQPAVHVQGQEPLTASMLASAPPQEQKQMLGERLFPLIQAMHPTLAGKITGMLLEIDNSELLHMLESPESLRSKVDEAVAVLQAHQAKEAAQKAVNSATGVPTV
UUG fidelity = modulators of yeast start codon fidelity, primary screen, whole organism, S. cerevisiae, single point, plate reader | hit rate 0.13% among 350,000 | activity score, % at 18.7 µM | S. cerevisiae UUG-firefly luciferase reporter, luminescence/redox ratio;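 active = replicate mean at a twofold rise or more, about +100% in these data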;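 note: firefly luciferase made from a UUG start codon reports start codon fidelity; reporter light over untreated wells divided by growth signal over untreated wells; some hits fall short of that in this replicate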
eIF4H inh = human eIF4H binding inhibitors, primary screen, translation initiation inhibitor project, biochemical, uHTS, fluorescence polarization | eIF4H fluorescence polarization binding assay | inhibition, % at 35 µM | AID 2012, 2009 | Eukaryotic translation initiation factor 4H (Homo sapiens), Q15056 | hit rate 0.94% among 290,000;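 active = 50% or more with normal probe brightness, or confirmed in later tests; inconclusive = above 50% with abnormal brightness, or retests that disagree; inactive = below 50% or failed in later tests; about a fifth of its hits are not listed in these tables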;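 note: calls also rest on retests at 20 µM and on dose response follow-up; 0% = protein and probe with vehicle and 100% = probe without protein; strong numbers were not always called active; many hits fall short of the cut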
MT1-MMP act inh RFP = also measured in MT1-MMP act inh; calls as there; RFP signal change, %; measured here: RFP expression control read;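 0 = vehicle wells; hits needed this value within 50% of zero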
* hit, by the source's call; i = inactive; ? = inconclusive; · = not tested or not shown; & = joins results of further samples; [ ] = dose if it differs, or a comment. The list is partial; count on the stated rates, not on these rows.

SMILES	MT1-MMP act inh	MT1-MMP act inh RFP	Rce1 inh	CSC inhib	HIV Env fusion	PABP FP inh	UUG fidelity	eIF4H inh
O=C(NCc1ccccc1)C1=C[C@H](C2CC2)C[C@H](OCCCCO)O1	3.3	3.3	i	-11.3	-13.4[16.7 µM]	-10.7	-8.7&-2.5	-2.3
COCCc1nnc(NC(=O)C(C)C)s1	3.5	4.5	i	-2.7	10.6	-5.2	·	-11.9
Cc1nc(CSc2ccccc2)cc(=O)[nH]1	-1.0	1.2	i	-7.0	-1.5	-5.2	-20.8	-0.6
COC(=O)/C(=C\Nc1ccccc1N)c1ncc(C(F)(F)F)cc1Cl	-0.1	1.7	i	-0.5	·	7.6	-12.4	-3.9
CCOC(=O)C1CCN(Cc2c(F)cccc2Cl)CC1	1.8	-0.7	i	-8.9	·	4.0	·	-13.8
COc1ccc(OC)c(C(Nc2ccccc2)P(=O)(OC(C)C)OC(C)C)c1 (stereo unspecified)	1.5	4.4	i	2.5	41.9	3.3	1.9	-1.5
COCCn1c(=O)[nH]c2cc(C(=O)Nc3cc(C)cc(C)c3)ccc2c1=O	3.5	-3.9	·	-0.4	14.6	8.0	-16.2	-6.1
CC1=C(C#N)C(c2cn(-c3ccccc3)nc2-c2cccs2)C(C#N)=C(C)N1	1.8	-3.9	i	-13.2	·	-6.1	-6.4	-8.9
CCOc1ccc(CCNC(=O)c2oc3c(c2C)-c2[nH]ncc2CC3)cc1OCC	6.9	2.0	i	5.7	14.1	-20.9	-5.2	-1.9
CC1(C)Cc2c(sc(NC(=O)c3ccco3)c2C#N)C(C)(C)N1	·	·	i	-7.2	·	98.8*	·	60.7*
O=C(CSCc1cc(=O)n2ccsc2n1)Nc1ccccc1	-2.0	6.3	i	-4.9	-1.9	·	2.0	·
CC(C)CC(CO)NS(=O)(=O)c1cccc(Cl)c1F (stereo unspecified)	0.1	2.6	·	·	12.0	·	-22.2	·
CC(C)COC(=O)NC1c2ccccc2Oc2ccccc21	-5.5	-1.5	i	6.3	0.1	7.0	-19.7	3.9
COc1ccc(NC(=O)/C(C#N)=C\c2ccc(OCc3ccc(C(=O)O)cc3)c(OC)c2)cc1	-0.6	1.9	i	-0.1	4.4	-7.3	·	21.9
COc1ccc(C(CNC(=O)c2ccc(S(=O)(=O)N(C)C)cc2)N(C)C)cc1 (stereo unspecified)	-0.5	1.5	i	-16.3	17.9	-3.7	·	-4.4
COc1ccc(NC(=O)CCNC(=O)c2ccc([N+](=O)[O-])cc2)cc1S(=O)(=O)N1CCOCC1	10.2	2.7	·	·	-4.6	·	-2.9	·
O=C(O)CCCn1cc(NC(=O)COc2cccc(Cl)c2)cn1	-3.3	-0.6	i	-15.1	8.2	-6.1	-13.9	-9.4
COc1cc(C(=O)NCc2nnc(SCC(=O)NCCc3ccccc3)o2)cc(OC)c1OC	11.4	1.7	i	-4.9	1.3	0.5	-20.6	-11.7
Cc1ccnc(NC(=O)c2cccc([N+](=O)[O-])c2C)c1	2.0	7.0	i	-4.8	5.9	1.2	·	-3.3
COCCn1c(=O)[nH]c2cc(C(=O)N3CCN(c4ccccc4F)CC3)ccc2c1=O	-4.2	-3.9	i	-11.5	·	0.6	-3.9	-2.3

Sorted by SMILES length (lowest first): 4 of the compounds above
SMILES	MT1-MMP act inh	MT1-MMP act inh RFP	Rce1 inh	CSC inhib	HIV Env fusion	PABP FP inh	UUG fidelity	eIF4H inh
CCOc1ccc(CCNC(=O)c2oc3c(c2C)-c2[nH]ncc2CC3)cc1OCC	6.9	2.0	i	5.7	14.1	-20.9	-5.2	-1.9
COc1ccc(C(CNC(=O)c2ccc(S(=O)(=O)N(C)C)cc2)N(C)C)cc1 (stereo unspecified)	-0.5	1.5	i	-16.3	17.9	-3.7	·	-4.4
COc1cc(C(=O)NCc2nnc(SCC(=O)NCCc3ccccc3)o2)cc(OC)c1OC	11.4	1.7	i	-4.9	1.3	0.5	-20.6	-11.7
COCCn1c(=O)[nH]c2cc(C(=O)N3CCN(c4ccccc4F)CC3)ccc2c1=O	-4.2	-3.9	i	-11.5	·	0.6	-3.9	-2.3

Next section.
SMILES	MT1-MMP act inh	MT1-MMP act inh RFP	Rce1 inh	CSC inhib	HIV Env fusion	PABP FP inh	UUG fidelity	eIF4H inh
CCOc1ccc2[nH]c(=O)c(CN(Cc3ccc(C)cc3)C(=O)N3CCCC3)cc2c1	-15.1	-12.6	i	-14.1	-48.9	-2.3	-6.2	-1.6
CCCCCCSc1ccc([C@H]2N[C@@](CC(C)C)(C(=O)OC)[C@H]3C(=O)N(C)C(=O)[C@@H]23)cc1	-6.2	-7.9	i	48.0	31.4	·	-9.9	·
Cc1nn(CC2CC2)c(=O)n1-c1ccccc1F	3.9	8.8	i	-6.4	9.1	-7.0	-12.8	-3.5
Cc1ccccc1Cn1ccc(-c2ccc(Cl)cc2)c(C#N)c1=O	0.1	4.2	i	-18.1	-28.7	-2.4	-4.2	-0.1
O=C(NCc1cccnc1)c1cccnc1Sc1ccc(Cl)cc1	-1.8	-6.5	i	-2.7	·	1.8	-12.6	5.3
COc1cc(C(=O)NCc2nnc(SCC(=O)N3CCCCC3)o2)cc(OC)c1OC	-1.1	5.1	i	-3.1	2.7	7.4	-17.5	4.6
CC(C)(C)C1CCc2c(sc(NC(=O)c3ccncc3)c2C(N)=O)C1 (stereo unspecified)	0.3	-12.5	i	62.4	·	3.9	-14.2	-0.8
CCOC(=O)C1=C(N2CCCCC2)c2cc3c(n2C1=O)CCCC3	4.5	-7.1	i	-9.1	·	5.9	-1.1	-4.3
CCOC(=O)c1sc(-c2ccc(C(F)(F)F)cc2)nc1O	-6.9	6.6	i	0.8	8.8	6.6	·	-1.4
COCCCNC(=O)CCc1ccc(S(=O)(=O)Nc2ccc(C)cc2)cc1	-2.8	-1.6	i	-4.9	-63.1	-2.6	-1.4	-11.0
COc1ccc(N2CCN(C(=O)c3ccc4c(c3)NC(=O)C(CSCc3ccccc3F)N4)CC2)cc1 (stereo unspecified)	-4.2	5.5	·	·	11.2	·	-13.8	·
CCOC(=O)c1nn(-c2ccc(Cl)cc2)c(=O)c(C#N)c1C	4.2	8.1	i	-12.3	-24.0	-5.0	3.6	8.3
Cc1ccc(Oc2ccc(C=O)cn2)cc1	-0.4	0.6	i	6.5	0.4	-2.7	·	-4.1
O=C(Nc1c2c(nn1-c1ccc([N+](=O)[O-])cc1)CS(=O)(=O)C2)c1ccco1	-1.8	4.2	i	-3.5	1.2	0.1	-11.1	1.4
CC(=O)NC1(C(F)(F)F)C(=O)Nc2c1c(=O)[nH]c(=O)n2CCc1ccccc1 (stereo unspecified)	-1.0	4.5	i	-12.8	3.6	0.1	·	?
O=C(CN1C(=O)/C(=C/c2ccccc2)SC1=S)N1CCN(CCc2ccccn2)CC1	2.5	2.6	i	-4.9	-0.2	9.7	-3.0	8.7
Nc1cc(C(F)(F)F)ccc1OCC1CCCO1 (stereo unspecified)	0.2	4.7	i	-1.1	-10.6	0.9	15.9	5.3
C(=N\N1CCN(C2c3ccccc3-c3ccccc32)CC1)/c1cccnc1	0.4	-5.1	i	-6.6	·	-8.3	6.3	-1.1
COCCc1ccc(OC2(C)CCN(Cc3cccc(OCOC)c3)C2)cc1 (stereo unspecified)	-6.6	-2.3	·	·	10.9	·	-2.4	·
CC(C)(C)c1ccc(NC(=O)COC(=O)CCc2nc3ccccc3c(=O)[nH]2)cc1	-13.6	0.9	i	-5.8	15.3	-6.0	·	-13.8
O=C(C=Cc1cccs1)c1ccc(Cl)s1	1.1	2.3	·	·	-13.1	·	-33.8	·
CC(NC(=O)Nc1ccccc1C(F)(F)F)C1CCCO1 (stereo unspecified)	2.2	2.0	i	-8.3	-27.8	-4.5	-22.6	2.1
COC(=O)c1ccccc1OCC(=O)N1CCN(c2ccc(OC)cc2)CC1	-2.5	-1.4	i	-16.1	7.2	9.2	-0.8	-0.6
Cc1nc2c3ccccc3nc(NNC(=O)CCC(=O)NCCC(C)C)n2n1	2.0	0.9	i	2.2	·	2.3	·	-0.7
CN1CCN(NC(=O)c2cn(-c3ccccc3)nc2-c2cccs2)CC1	-0.9	4.2	i	·	1.9	-15.2	·	-1.6
COC(=O)c1nnn(-c2nonc2N)c1COc1ccc(C=O)cc1OC	0.7	2.3	i	-0.6	-9.8	-9.6	-3.8	-0.9
O=c1c2ccccc2ncn1C1CCCCC1	-3.8	-1.4	i	-21.6	-40.8	-8.8	-17.3	-9.7
COc1cc(NC(=O)C2CCCN2S(=O)(=O)c2ccc3c(c2)CC(C)N3C(C)=O)cc(OC)c1 (stereo unspecified)	2.7	-0.1	i	5.7	18.5	2.4	-0.9	-13.0
O=C(O)C1=C[C@H](C2CC2)C[C@H](OCc2ccc(CO)cc2)O1	-3.4	1.3	i	-9.0	15.8	·	-14.2	·
CCN1CCN(C(=O)CCN2C(=O)c3ccccc3S2(=O)=O)CC1	0.7	0.9	i	-15.9	10.6	·	-18.3	·
CON(C)c1nc(OCC#N)nc(N(C)C)n1	0.7	3.4	i	-7.1	-1.6	9.7	·	7.8
COc1ccc(C)cc1N(C(=O)c1ccco1)C(C(=O)NC1CCCC1)c1cc(OC)c(OC)c(OC)c1 (stereo unspecified)	0.3	3.2	i	·	-9.5	3.9	-8.8	3.9
CC(C)N1C(=O)CN(C2CCCCCC2)C(=O)C1c1ccccc1F (stereo unspecified)	-0.2	1.5	i	-7.8	·	-0.8	-4.5	-5.3
CN1C(=O)/C(=C/c2ccccc2OCc2ccccc2F)NC1=S	-3.8	-0.9	i	9.2	·	7.2	-13.3	1.6
Cc1ccc(C(=O)NN2C(=O)C3C4c5ccccc5C(c5ccccc54)C3C2=O)cc1 (stereo unspecified)	-1.8	-5.1	i	15.1	-4.3	-10.0	·	-5.4
COc1ccc(CC(C)CC(=O)NCCc2ccc(OC)c(OC)c2)cc1 (stereo unspecified)	0.6	0.7	i	-6.1	-0.4	-10.3	6.5	-7.4
Cc1cccn2c(=O)c3cc(C(=O)N4COCC4(C)C)sc3nc12	-0.4	1.4	i	-4.0	5.5	-6.6	·	-5.8
Cc1ccnc2nc(C(=O)OCC(=O)N3CCc4ccccc43)nn12	-0.1	4.8	i	-4.8	-5.5	10.7	·	-2.4
Cc1ccc(NC(=O)N2CCCC2C(=O)NCC2CCCO2)cc1 (stereo unspecified)	-2.1	1.3	i	-13.5	-4.9	-4.8	-12.2	3.9
CCCCn1c(SCC(=O)NCc2ccco2)nc2c1c(=O)n(C)c(=O)n2C	0.9	2.5	i	-3.2	·	-13.7	-4.6	1.6
CCOC(=O)C1=CNS(=O)(=O)NC1c1cccc(O)c1 (stereo unspecified)	2.3	6.9	·	·	-0.1	·	-1.5	·
CNC(=O)c1c(C)nc(SCC(=O)NCc2ccc(OC)cc2)c(C#N)c1-c1ccco1	1.4	4.1	i	-13.1	-8.9	7.8	-3.3	10.2
O=S(=O)(c1ccc2c(c1)C(=NO)c1cc(S(=O)(=O)N3CCCCC3)ccc1-2)N1CCCCC1	-46.9	-38.5	i	122.1*	125.5*	1.5	1.5	-7.0
COc1cccc(NC(=O)c2cc(-c3ccco3)nc3ccccc23)c1	-1.8	3.9	i	7.5	4.4	·	·	·

Source: PubChem (several laboratories)
